LANA-H2B inh: blockers of LANA interaction with H2A/H2B – biochemical, FP readout, HTS, primary screen | hit rate 0.6% among 320,000 | inhibition, % (test concentration not listed) | Protein LANA1 (Human herpesvirus 8 type P (isolate GK18)), Q9QR71 | cell-free LANA-H2A/H2B peptide, fluorescence polarization | AID 2629, 2010; in the data active = inhibition mostly above about 10%, no sharp cut-off; inactive = mostly below about 6.7%;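 note: stock transfer was 7.5 nL into about 10 µL; 0% = median of vehicle wells and 100% = median of positive control wells; one replicate is shown; the record names a cut of 25% in any replicate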
HNF4A DNA FP: change in binding of human HNF4A to DNA, primary screen, biochemical, fluorescence polarization, FITC-DNA; Hepatocyte nuclear factor 4-alpha (Homo sapiens), P41235; 1 h; activity change, % at 10 µM; hit rate 0.3% among 360,000; AID 1224865, 2016; in the data active = activity change above about 30%, passing the limit was not always enough;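 note: controls were the assay level and a saturating level of protein; the project sought stronger binding though the title names inhibitors; some compounds called inactive have numbers as strong as hits; positive values seem to mean higher polarization but the record does not say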
Target sequence (P41235 whole entry, looked up): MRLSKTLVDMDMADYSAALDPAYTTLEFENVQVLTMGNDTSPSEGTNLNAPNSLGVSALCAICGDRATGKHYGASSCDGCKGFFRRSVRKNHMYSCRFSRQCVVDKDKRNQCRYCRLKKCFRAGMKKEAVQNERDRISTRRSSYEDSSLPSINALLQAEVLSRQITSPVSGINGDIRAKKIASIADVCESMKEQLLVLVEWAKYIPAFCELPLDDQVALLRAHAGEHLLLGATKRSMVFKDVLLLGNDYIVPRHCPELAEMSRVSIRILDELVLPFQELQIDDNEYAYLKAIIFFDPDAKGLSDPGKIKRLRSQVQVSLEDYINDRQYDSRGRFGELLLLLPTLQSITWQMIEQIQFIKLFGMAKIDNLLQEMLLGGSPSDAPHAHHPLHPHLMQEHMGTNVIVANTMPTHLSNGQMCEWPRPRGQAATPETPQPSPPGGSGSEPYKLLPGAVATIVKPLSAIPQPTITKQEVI
Ecoli growth: E. coli growth inhibition, primary screen, OD600; Escherichia coli growth, 23 h; hits give low values; OD600 absorbance (concentration not given with the values); hit rate 0.21% among 330,000;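 active = OD600 absorbance below the run mean of sample wells minus 3.6 SD, in any replicate, cut at about 0.56 in these data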;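 note: stock transfer was 300 nL into about 60 µL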
Beta2AR agonist: beta2AR agonists driving receptor internalization, primary screen, cell-based, FAP fluorogen, flow cytometry | Am2.2-beta2AR cells; reference of the scale not given here | response, % (concentration not given with the values) | Beta-2 adrenergic receptor (Homo sapiens), P07550 | AID 504454, 2011 | hit rate 0.43% among 340,000;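 active = response above a set limit, near 3 SD of response in nonfluorescent compounds, cut at about 42% in these data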;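 note: stock transfer was 100 nL into about 11 µL; a reference agonist was the positive control; negative values mostly stem from fluorescent compounds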
Bfl-1 A1 inh: caspase 3/7 activation in MEF A1-2A-BIM cells, primary screen, A1 inhibitor project, cell-based, luminescence, HTS. Caspase-Glo 3/7 luminescence, 3 h; percent of clofoctol response, vehicle zero. caspase activation, % (concentration not given with the values). hit rate 0.066% among 330,000;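 active = over half of replicate activation scores above 10%, or exactly half above 10 with the replicate mean above 10; inconclusive = replicate mean below 10 yet half the replicates above 10; inactive = over half of replicates below 10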;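 note: wells of about 30 µL received 50 nL stock; many hits fall short of the cut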
UCH37 inh: inhibitors of human UCH37 deubiquitinase, primary screen, biochemical, Ub-AMC cleavage, fluorescence. purified proteasome/UCH37. AID 588478, 2011. inhibition, % (test concentration not listed). hit rate 0.33% among 330,000;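 active = mean of two replicates above 20%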;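 note: 0% = compound-free wells with enzyme and 100% = wells lacking proteasome; stock transfer was 100 nL into about 20 µL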
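Material: human UCH37 enzyme supplied as purified proteasome complex / Amount: 0.15 nM proteasome as dispensed / Buffer or medium: pH 7.4 Tris-HCl (50 mM) with ovalbumin, ATP-MgCl2, DTT / Times: preincubation 30 min, reaction 25 min, room temperature / Technique: AMC fluorescence from Ub-AMC cleavage, excitation 355 nm, emission 460 nm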
Vif A3G: inhibitors of Vif binding to APOBEC3G peptide, primary screen, biochemical, TR-FRET, GST-Vif 1-94, biotin-A3G peptide, dose response retest (AID 1117319) | Virion infectivity factor (Human immunodeficiency virus type 1 group M subtype B (isolate … | TR-FRET GST-Vif / biotin-A3G peptide binding; higher % means a stronger effect; test concentration not given here; strong numbers were not always called active | inhibition, %; hits with a dose series show IC50 in µM | hit rate 0.57% among 260,000;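 active = above the screen mean plus three standard deviations and confirmed in dose response; inconclusive = results disagree or hit not tested in dose response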;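 note: Vif residues 1-94 fused to GST binding biotinylated APOBEC3G peptide 110-148; 0% = full assay without inhibitor and 100% = GST in place of GST-Vif; retest series ran down from 100 µM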
An asterisk follows results filed as active; ? = inconclusive; / = no result given.

1	N#Cc1ccc(COC(=O)CC(NC(N)=O)c2ccc(Cl)cc2)cc1 (stereo unspecified)
2	COC(=O)C(CC(C)C)NC(=O)C(Cc1ccccc1)NC(=O)C1CCCN1C(=O)OC(C)(C)C (stereo unspecified)
3	O=c1cc2[nH]c3ccccc3c(=O)n2nc1-c1ccccc1
4	C1=C(CCNCC2CCCCC2)CCCC1
5	CCCCC(=O)Nc1ccc(NC(=O)c2ccc([N+](=O)[O-])cc2)cc1OC
6	CCOC(=O)c1c(C)nc2cc(C)ccn12
7	CCCCCc1nnc(NC(=O)c2cccc(S(=O)(=O)N3CCOCC3)c2)s1
8	CC(C)(CO)NCc1cccc(OCc2ccc(Cl)cc2)c1

screen / no.	1	2	3	4	5	6	7	8
LANA-H2B inh	-3.9	5.8	3.5	0.5	-2.6	-0.7	/	4.3
HNF4A DNA FP	-1.1	-0.1	2.5	6.6	-0.7	0.1	-0.7	0.5
Ecoli growth	0.68	0.67	0.78	0.62	0.75	0.63	0.73	0.66
Beta2AR agonist	-4	-5	2	-1	-7	6	12	10
Bfl-1 A1 inh	0.6	0.9	-2.3	-0.7	-0.3	-0.2	/	-0.6
UCH37 inh	3.5	-0.2	-43	1.3	4.7	-1.7	1.9	3.3
Vif A3G	-6%	?	9%	1%	6%	14%	-11%	-11%

One compound at a time, as listed above. Values in the order: LANA-H2B inh | HNF4A DNA FP | Ecoli growth | Beta2AR agonist | Bfl-1 A1 inh | UCH37 inh | Vif A3G
Entry for O=c1cc2[nH]c3ccccc3c(=O)n2nc1-c1ccccc1 → 3.5 | 2.5 | 0.78 | 2 | -2.3 | -43 | 9%
Entry for CCCCC(=O)Nc1ccc(NC(=O)c2ccc([N+](=O)[O-])cc2)cc1OC → -2.6 | -0.7 | 0.75 | -7 | -0.3 | 4.7 | 6%
Entry for CC(C)(CO)NCc1cccc(OCc2ccc(Cl)cc2)c1 → 4.3 | 0.5 | 0.66 | 10 | -0.6 | 3.3 | -11%
Entry for COC(=O)C(CC(C)C)NC(=O)C(Cc1ccccc1)NC(=O)C1CCCN1C(=O)OC(C)(C)C (stereo unspecified) → 5.8 | -0.1 | 0.67 | -5 | 0.9 | -0.2 | ?

(listing goes on)
9	O=C1NCCCC1C(=O)N/N=C/c1ccccc1O (stereo unspecified)
10	O=C(CSc1nnnn1-c1cccc2c1CCCC2)N1CCOCC1
11	CC(=O)N1Cc2ccccc2CC1C(=O)N1CCN(c2ccccc2)CC1 (stereo unspecified)
12	O=C(C(Cc1ccccc1)n1cccc1)N1CCCCCC1 (stereo unspecified)
13	CCN1CCN(c2nc(N)c([N+](=O)[O-])c(Nc3ccc(C)c(C)c3)n2)CC1
14	CCS(=O)(=O)Nc1cc2c3c(c1)CCN3C(=O)CC2
15	Cc1ccc(CNc2ccc(N3CCOCC3)cc2)cc1
16	COc1cccc(C2NC(=O)NC(C)=C2C(=O)OCC2CCCO2)c1 (stereo unspecified)

screen / no.	9	10	11	12	13	14	15	16
LANA-H2B inh	-1.8	-0.2	-0.4	-2.2	3.1	13	-0.3	1.1
HNF4A DNA FP	0.9	2.0	-0.9	1.2	-2.6	-5.1	-4.2	2.3
Ecoli growth	/	0.7	0.72	0.67	0.67	0.7	/	0.67
Beta2AR agonist	3	-3	7	-2	63*	4	0	1
Bfl-1 A1 inh	-2.0	-0.6	-0.7	-1.6	-0.2	0.4	-1.0	-0.3
UCH37 inh	/	1.3	2.7	2.1	-0.2	-1.1	/	1.6
Vif A3G	/	0%	0%	7%	/	0%	?	-13%

17	Nc1c(C(=O)NCc2ccccc2)nnn1Cc1ccccc1
18	COc1ccc(S(=O)(=O)N2CCN(Cc3ccc(Cl)cc3)CC2)cc1
19	COc1ccc(C(C[N+](=O)[O-])c2c(-c3ccccc3)cc3ccccn23)cc1 (stereo unspecified)
20	CN(Cc1ccon1)C(=O)C1CCC(=O)N(CCc2ccc(Cl)cc2)C1 (stereo unspecified)
21	CCCOc1nc(N)c(C#N)c(-c2ccccc2F)c1C#N

screen / no.	17	18	19	20	21
LANA-H2B inh	0.9	4.9	1.7	/	/
HNF4A DNA FP	2.9	1.0	0.0	-2.3	-2.8
Ecoli growth	0.73	0.71	0.67	0.71	0.7
Beta2AR agonist	7	-2	6	-5	3
Bfl-1 A1 inh	0.0	0.8	2.4	/	/
UCH37 inh	4.8	2.2	-3.4	4.0	-2.5
Vif A3G	-6%	-3%	11%	/	-36%
